T cruzi inh: T. cruzi replication inhibition; T. cruzi beta-gal in NIH3T3, luminescence, 90 h; inhibition, % (concentration not given with the values); 1.4% of 300,000 active; AID 1885;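 active = mean inhibition across valid replicates above about 55%, limit read from the data; inconclusive = mean below that limit but half or more replicates reach it; inactive = mean below it, under half of replicates reach it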;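 also: signal also drops with host cell toxicity which is not excluded here; 0% = plate median of DMSO wells and 100% = zero luminescence signal; higher percent means less beta-gal luminescence so fewer parasites; stock transfer was 50 nL into about 50 µL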
A1 inh: inhibitors of the anti-apoptotic protein A1, read as caspase activation; 0.066% of 330,000 active; MEF A1-2A-BIM cells, Caspase-Glo 3/7 luminescence, 3 h; percent of clofoctol response, vehicle zero; caspase activation, % (no concentration beside the values);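 active = over half of replicate activation scores above 10%, or exactly half above 10 with the replicate mean above 10; inconclusive = replicate mean below 10 yet half the replicates above 10; inactive = over half of replicates below 10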;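 also: wells of about 30 µL received 50 nL stock; many hits fall short of the cut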
Beta cell apopt: beta cell apoptosis inhibition. INS-1E cytokine-induced death, ATP luminescence, 48 h; percent of positive-control rescue, neutral wells zero. 0.8% of 300,000 active. protection from apoptosis, % (test concentration not listed);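 active = all replicates at 75% or more, or half of them and the mean; inconclusive = half reach 75% but not the mean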;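 also: 0% = cytokine-treated negative control wells and 100% = positive control rescue; higher means more ATP so stronger rescue from cytokine killing; wells of about 40 µL received 100 nL stock; the first replicate is given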
LANA-H2B inh: blocks KSHV LANA binding to histone H2A/H2B | Q9QR71 | cell-free LANA-H2A/H2B peptide, fluorescence polarization | inhibition, % (no concentration beside the values) | 0.6% of 320,000 active; in the data active = inhibition mostly above about 10%, no sharp cut-off; inactive = mostly below about 6.7%;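 also: stock transfer was 7.5 nL into about 10 µL; 0% = median of vehicle wells and 100% = median of positive control wells; one replicate is shown; the record names a cut of 25% in any replicate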
Target sequence (Q9QR71 whole entry, looked up): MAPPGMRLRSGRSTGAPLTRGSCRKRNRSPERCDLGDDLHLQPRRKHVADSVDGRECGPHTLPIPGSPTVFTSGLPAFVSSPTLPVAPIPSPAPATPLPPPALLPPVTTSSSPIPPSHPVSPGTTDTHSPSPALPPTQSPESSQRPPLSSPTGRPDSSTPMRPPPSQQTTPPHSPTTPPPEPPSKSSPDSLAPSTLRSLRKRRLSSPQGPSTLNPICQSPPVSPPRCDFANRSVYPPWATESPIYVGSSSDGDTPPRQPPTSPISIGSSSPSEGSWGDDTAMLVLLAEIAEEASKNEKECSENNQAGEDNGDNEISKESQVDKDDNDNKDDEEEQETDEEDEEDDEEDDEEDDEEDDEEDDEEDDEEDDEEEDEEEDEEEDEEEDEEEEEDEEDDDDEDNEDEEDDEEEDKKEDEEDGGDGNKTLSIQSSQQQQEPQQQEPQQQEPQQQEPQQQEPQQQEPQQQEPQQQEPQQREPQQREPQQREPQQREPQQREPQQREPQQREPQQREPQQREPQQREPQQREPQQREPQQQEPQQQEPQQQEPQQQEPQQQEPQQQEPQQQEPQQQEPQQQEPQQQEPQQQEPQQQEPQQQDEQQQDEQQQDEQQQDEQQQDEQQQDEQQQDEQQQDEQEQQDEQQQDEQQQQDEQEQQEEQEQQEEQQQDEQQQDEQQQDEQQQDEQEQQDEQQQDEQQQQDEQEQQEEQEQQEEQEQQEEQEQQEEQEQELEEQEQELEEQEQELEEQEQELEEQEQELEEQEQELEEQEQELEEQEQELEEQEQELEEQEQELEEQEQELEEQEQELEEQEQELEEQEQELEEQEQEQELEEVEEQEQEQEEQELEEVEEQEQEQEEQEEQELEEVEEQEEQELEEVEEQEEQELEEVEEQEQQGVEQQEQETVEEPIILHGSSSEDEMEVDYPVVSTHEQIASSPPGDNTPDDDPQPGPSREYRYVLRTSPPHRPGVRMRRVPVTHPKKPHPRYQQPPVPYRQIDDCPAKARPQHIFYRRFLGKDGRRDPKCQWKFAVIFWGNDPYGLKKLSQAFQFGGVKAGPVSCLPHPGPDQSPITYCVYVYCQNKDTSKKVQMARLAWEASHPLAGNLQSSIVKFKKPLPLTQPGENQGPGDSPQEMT
Vif A3G: HIV-1 Vif–A3G interaction blockers – biochemical, TR-FRET, GST-Vif 1-94, biotin-A3G peptide, dose response retest, primary screen (AID 1117319); inhibition, %; hits with a dose series show IC50 in µM; 0.57% of 260,000 active; TR-FRET GST-Vif / biotin-A3G peptide binding; higher % means a stronger effect; test concentration not given here; strong numbers were not always called active;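 active = above the screen mean plus three standard deviations and confirmed in dose response; inconclusive = results disagree or hit not tested in dose response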;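 also: Vif residues 1-94 fused to GST binding biotinylated APOBEC3G peptide 110-148; 0% = full assay without inhibitor and 100% = GST in place of GST-Vif; retest series ran down from 100 µM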
MLL AF4-AF9 inh: MLL-AF4/AF9 protein interaction inhibition; 0.47% of 350,000 active; inhibition, % at 10 µM; AlphaScreen, biotin-AF4 peptide binding to FLAG-AF9; AID 651704;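 active = every replicate reaching a set inhibition limit, whatever the replicate mean, cut at about 25% in these data; inconclusive = mean inhibition reaches that limit but some replicates miss it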;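 also: 0% = plate neutral control median and 100% = total signal loss; the record names both 10 and 1 µM as test concentration; the first replicate is given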
RanGTP-Impb inh: inhibitors of RanGTP-importin-beta interaction, primary screen, biochemical, FRET, CFP-Ran, YFP-importin-beta, homogeneous. cell-free CFP-Ran/YFP-importin-beta FRET ratio. inhibition, % (concentration not given with the values). 1.1% of 300,000 active;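 active = most replicates above 15%; inconclusive = exactly half above 15%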;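 also: 0% = DMSO wells and 100% = Ran loaded with GDP instead of GTP; wells of about 40 µL received 100 nL stock; the first replicate is given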
Calb FLC: affects C. albicans growth with fluconazole; AID 1979; growth inhibition, % (no concentration beside the values); 0.57% of 300,000 active; C. albicans CaCi-2 (fluconazole-resistant clinical isolate) + fluconazole, Alamar Blue growth, 48 h;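 active = most replicates above 75%; inconclusive = exactly half above 75%; inactive = most below 75%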;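 also: all wells also contain fluconazole at 8 µg/ml as a sub-toxic cotreatment; 0% = median of DMSO wells and 100% = median of geldanamycin control wells; wells of about 8 µL received 7.5 nL stock; the first replicate is given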
An asterisk follows results filed as active; ? = inconclusive; nt = no result given; & = joins results of further samples.

Below each compound – T cruzi inh	A1 inh	Beta cell apopt	LANA-H2B inh	Vif A3G	MLL AF4-AF9 inh	RanGTP-Impb inh	Calb FLC
Cn1nc(C(=O)NCc2cccc(Cl)c2)c2c1-c1ccccc1S(=O)(=O)C2
 : 11	0.3	3	1.4	0%	0.4	-0.4	-4
Cc1cccc(NC(=O)C2CC(=O)N(c3ccccc3)C2)c1C (stereo not drawn)
 : -13	0.9	-2	-5.6	2%	nt	-3.0	-5
CSc1nc(C)cc(OCNC(=O)c2cccs2)n1
 : -19	0.5	1	4.6	15%	nt	2.0	-4
Cc1cc(C)c2c(CN3CCN(Cc4ccc5c(c4)OCO5)CC3)cc(=O)oc2c1C
 : 31	2.1	1	1.4	3%	nt	-3.2	-18
O=C(CCN1C(=O)c2ccc(Br)cc2C1=O)NC1CCCCC1
 : 0	-0.8	-5	2.3	-6%	1.4	2.2	-1
O=C(CCNC(=O)c1ccccc1)NNC(=O)COc1ccccc1Cl
 : nt	0.5	2	0.8	9%	-1.0	nt	nt
Cc1ccc(C(=O)C(C)OC(=O)CCN2C(=O)C3C4C=CC(C5CC45)C3C2=O)cc1 (stereo not drawn)
 : 0	-2.1	nt	0.3	nt	-1.5	3.1	-5
COc1ccccc1Nc1nnc(SCC(=O)Nc2cc(C)on2)s1
 : 0	0.0	2	-1.9	-3%	nt	0.4	-4
NS(=O)(=O)c1ccc(N=Nc2c(O)c(C(=O)O)cc3ccccc23)cc1
 : -6	-1.5	1	-2.8	25%	-3.0	-8.7	17
O=C(c1cc2cc(Br)ccc2oc1=O)N1CCN(c2ccccn2)CC1
 : 1	0.1	2	2.9	1%	nt	-4.0	7
O=C(COC(=O)c1ccc([N+](=O)[O-])s1)Nc1ccc(Cl)cn1
 : 25	0.4	-1	-0.3	11%	-0.3	1.7	-1
Cc1nccn1-c1ccc(C=O)cc1
 : 5	0.0	-5	2.7	6%	-0.5	2.9	-2
COC(=O)[C@@H]1C[C@@]2(O)[C@@H](O)[C@@H](O)[C@@H](O)C[C@H]2N1Cc1ccc(-c2ccccc2)cc1
 : -11	0.0	2	-9.4	nt	-3.8	0.6	-11
N#Cc1cnc(Sc2ccccc2)nc1
 : -24	?	-3	1.7	-11%	-2.2	2.9	1
C=CCn1c(C)cc(C(=O)CSc2nc3ccccc3[nH]2)c1C
 : -25	-3.3	30	0.3	19%	nt	-6.0	8
Cc1ccccc1NC(=O)CN1CCN(C)CC1
 : -8	-0.5	-5	-0.5	-4%	0.5	-2.8	4
O=[N+]([O-])c1ccc2c(c1)ncn2-c1ccccc1
 : -7	-0.4	-1	3.7	21%	nt	1.4	3
C=CCN1C(=O)CSc2ccc(C(=O)NC3CCCCC3)cc21
 : -5	-0.1	1	2.5	-9%	0.0	-3.3	2
CCC(C(=O)Nc1cccnc1Cl)c1ccccc1 (stereo not drawn)
 : -17	0.8	-4	1.4	nt	-0.9	-1.9	-8
CCN(CC)c1ccc(NC(=O)CCNC(=O)c2ccco2)cc1
 : -2	0.4	11	-4.1	nt	6.6	-1.7	-15
Cc1nc(-c2ccc(S(=O)(=O)Nc3cccc(S(N)(=O)=O)c3)s2)cs1
 : -11	-0.1	-2	0.0	6%	-5.8	-1.2	7
O=C(NC1CC1)C1CCN(C(=O)c2ccccc2Cl)CC1
 : -7	-0.2	-2	0.7	nt	-1.3	-1.1	2
Cc1ccccc1OCCC(=O)OCC(=O)Nc1ccc2[nH]c(=O)[nH]c2c1
 : -13	0.7	-7	0.2	0%	0.0	-0.1	7
Nc1nnc(CCc2ccccc2)s1
 : -13	-0.2	1	-5.5	?	nt	-3.6	1
COc1cccc(OC)c1C(=O)N1CCN(c2c(Cc3ccccc3)c(C)nc3ncnn23)CC1
 : 7	0.0	nt	6.1	3%	-5.3	0.5	?
COc1ccc(CC(=O)N2CCCC2)c(OC)c1
 : -13	0.9	-7	-2.3	nt	-7.4	-3.3	-3
CC(=NCCc1ccccc1)C1=C(O)CSC1=O
 : 1	-1.2	-13	-2.7	?	nt	?	25
CS(=O)(=O)N(CC(=O)NCc1ccccc1Cl)c1cccc([N+](=O)[O-])c1
 : -10	-0.8	-1	-1.8	3%	-2.3	0.1	-5
Cc1cnc(C(=O)OCC(=O)N2c3ccccc3NC(=O)C2(C)C)cn1
 : -1	-0.4	nt	2.6	28%	nt	0.3	16
CC1CCCC(NC(=O)COC(=O)CCc2ccccc2)C1C (stereo not drawn)
 : 2	2.3	6	2.2	0%	-1.6	2.9	-8
c1ccc2c(c1)nc(NCc1ccc3c(c1)OCO3)n2CCN1CCOCC1
 : 16	0.0	-1	6.5	11%	-5.6	?	-3
O=C(NC1CCN(Cc2ccccc2)CC1)c1cccc(S(=O)(=O)Nc2ccc(SC(F)F)cc2)c1
 : nt	-0.5	15	-3.5	nt	-1.9	nt	nt
Cc1ccc(S(=O)(=O)N2CCN(c3nn(C)c(=O)n(C)c3=O)CC2)cc1C
 : nt	0.2	-1	-5.0	-9%	-0.4	nt	nt
CSCC[C@H](NC(=O)Cc1c(C)c2c(cc(C)c3c(C)coc32)oc1=O)C(=O)O
 : -6	0.1	-20	6.4	5%	-9.4	-2.2	-2
CCc1cc(C(=O)NNC(=S)Nc2ccccc2C)cs1
 : -9	0.6	2	0.3	1%	nt	0.4	54
Cc1ccc(-c2cc(C(=O)N/N=C/c3c(C)nn(C)c3C)c3ccccc3n2)c(C)c1
 : 51	0.8	4	-1.4	-1%	nt	-0.1	18
Cn1nc(C(F)(F)F)c(C(=O)Nc2ccc(F)cc2)c1Cl
 : -11	-0.9	-7	2.0	14%	-0.6	?	-25
COc1cccc(Nc2nc3ccccc3nc2NS(=O)(=O)c2cccs2)c1
 : -23	-0.3	29	-1.1	2%	nt	2.8	26
CCNC(=O)COC(=O)COc1ccc(Cl)cc1C
 : -14	-0.9	5	-0.5	-2%	nt	0.5	-4
COc1cc(/C=C2\SC(=S)N(CCC(=O)Nc3ccccc3O)C2=O)cc(OC)c1OC
 : -14	-0.6	10	-1.4	nt	-2.9	-1.5	7
O=C(Nc1ccccn1)c1cccc(S(=O)(=O)N2CCc3ccccc3C2)c1
 : -2	0.5	-11	nt	-8%	-1.0	-1.1	3
O=C(c1ccc(-c2ccccc2)cc1)C1CCCN(C(=O)Cn2cncn2)C1 (stereo not drawn)
 : -19	0.4	7	-5.3	-1%	-0.5	0.3	9
COc1ccc(S(=O)(=O)N2CCc3ccccc32)cc1C(=O)N(CC(C)C)C1CCS(=O)(=O)C1 (stereo not drawn)
 : 6	0.4	nt	3.0	-5%	-5.2	?	9
CC1=NN(C(N)=S)C(=O)C1N=Nc1c(C)n(C)n(-c2ccccc2)c1=O (stereo not drawn)
 : -6	-1.1	nt	-0.5	nt	-2.4	-2.2	-25
COc1cc2c(cc1OC)C(c1cccc(Br)c1)NC(=O)C2 (stereo not drawn)
 : -8	-0.9	-1	-4.8	nt	0.5	-5.8	25
CCC(C(=O)NCCN1CCOCC1)n1c2ccccc2c2nc(=O)cc(C)n21 (stereo not drawn)
 : 15	1.4	2	0.0	nt	1.1	0.2	-3
Cc1cc(/C=N/NC(=O)c2cccc(N(C)C)c2)c(C)n1-c1cc(C(=O)O)cc(C(=O)O)c1
 : -3	nt	nt	nt	-10%	-2.6	?	-1
Cc1cc2c(cc1C)CSC(c1ccccc1O)SC2
 : -33	-0.6	9	-2.5	6%	nt	1.8	13
O=[N+]([O-])c1cccc2cn[nH]c12
 : 5	0.5	nt	-1.1&1.7	27%	-12	?	nt
COc1cc(Br)c(/C=C/c2ccc3cccc(O)c3n2)cc1OC
 : 57*	1.0	9	5.4	-7%	-1.1	-1.8	-2

(list continues)
Below each compound – T cruzi inh	A1 inh	Beta cell apopt	LANA-H2B inh	Vif A3G	MLL AF4-AF9 inh	RanGTP-Impb inh	Calb FLC
OCCNc1nc(Cl)nc(NCc2ccco2)n1
 : -6	0.9	-5	-0.4	20%	-4.1	3.4	-9
O=C(COc1cc2oc(=O)c3c(c2cc1Cl)CCC3)N1C[C@H]2C[C@@H](C1)c1cccc(=O)n1C2
 : 3	0.3	-5	-1.2	nt	-0.4	1.7	-3
CCOc1ncccc1C(=O)Nc1c(C)n(C)n(-c2ccccc2)c1=O
 : -2	-0.2	-10	1.5	4%	-1.8	7.3	-4
COc1cc(C(=O)OCC(=O)Nc2ccc(C(C)=O)cc2)ccc1OCC(=O)N1CCOCC1
 : -9	-0.3	-1	0.8	2%	0.4	0.4	-12
CCOC(=O)c1c(C)oc2ccc(OCC(N)=O)cc12
 : -4	0.4	0	-4.2	16%	nt	6.0	41
O=C(O)c1ccc(S(=O)(=O)NCC2CCCCC2)cc1
 : 4	1.4	-3	1.3	-3%	-11	-0.3	4
COc1ccc(NC(=O)CCC(=O)Nc2ccc3nc(N4CCOCC4)cc(C)c3c2)c(OC)c1
 : 10	0.2	5	-3.2	nt	-5.9	-2.9	-8
C=CCn1ncc(OC)c(Cl)c1=O
 : -8	0.2	1	-13	-2%	-12	-0.5	24
O=C(OCCN1C(=O)c2ccccc2C1=O)c1ccccc1
 : nt	0.3	-6	-0.4	-15%	-0.5	nt	18
COc1ccc(CN2CCNC(=O)C2CC(=O)N(C)Cc2ccon2)cc1OC (stereo not drawn)
 : -9	0.9	-4	-4.4	?	0.2	-0.7	-9
CCOC(=O)N1CCN(C(=O)C2CCCN(c3ncnc4c3nc3n4CCCCC3)C2)CC1 (stereo not drawn)
 : 7	0.9	-3	-4.9	nt	-5.0	-0.3	-12
CCCCc1ccc(NC(=O)c2cnccn2)cc1
 : -12	-7.8	7	1.3	-4%	1.3	1.1	0
Cc1[nH]c(=O)[nH]c(=O)c1NS(=O)(=O)c1ccc2c(c1)CCCC2
 : -10	0.4	-1	-1.9	7%	3.2	1.8	-17
COCCn1nnnc1C(c1cccs1)N1CCN2CCCC2C1 (stereo not drawn)
 : -13	0.1	nt	1.1	7%	-17	-0.7	-3
Cc1cc(OC(C)C(=O)N(Cc2ccco2)C2CCS(=O)(=O)C2)ccc1Cl (stereo not drawn)
 : 8	-0.5	-9	-7.1	nt	nt	-3.5	-1
CCc1ccccc1NC(=O)CSC1=C(C#N)C(c2ccc(O)c(OC)c2)C2=C(CCCC2=O)N1 (stereo not drawn)
 : -9	0.4	-5	4.4	?	nt	4.9	5
Cc1ccc2c(CC(=O)NNC(=O)c3ccccc3)coc2c1
 : -4	0.2	-2	2.3	nt	1.8	-0.7	-7
C=CCCC(=O)N(C)CCO
 : -9	-0.7	-11	-2.7	nt	-0.1	3.2	-5
NS(=O)(=O)c1ccc(CCNC(=O)c2ccc3c(=O)n4c(nc3c2)CCCCC4)cc1
 : nt	0.4	-5	-2.0	nt	2.0	nt	nt
Cc1nn(CC(=O)N2CCN(C)CC2)c(=O)c2c1sc1ccccc12
 : 13	-0.4	-1	1.3	nt	-1.8	1.3	-2
COc1ccc2[nH]c3c(c2c1)CN(C)CC3
 : -12	-0.6	3	6.8	6%	nt	1.3	-10
COC(=O)CN1C(=O)[C@H]2[C@@H](c3ccc(C)o3)N3C(=O)CN(Cc4ccccn4)C(=O)[C@@]3(C)[C@H]2C1=O
 : -3	-0.1	-2	1.7	nt	-4.7	4.4	-1
CC1(OC(=O)c2cccs2)C(=O)C=C2C=C(c3ccc(C#N)cc3)OC=C2C1=O (stereo not drawn)
 : -20	-1.0	-3	2.3	nt	nt	-1.5	-4

No enrichment for hits. Share with any hit: about 4.3%.
